# Vaccinia mCherry = qHTS for Stage-Specific Inhibitors of Vaccinia Orthopoxvirus: mCherry Reporter Primary qHTS. AID 720579, 2013. Potency, µM (top dose mostly 36.5 µM), for inactives: at the top dose activity change, negative = inhibition, hits mostly inhibitors. Vaccinia virus mCherry reporter infection, fluorescence; about a quarter of the inactives have no number. 310,000 compounds, 0.63% hits; active = well fitted inhibition curve with a large enough effect; inconclusive = small, poorly fitted or top-dose-only effect; inactive = no such curve, though single readings can be large or run the other way; tested in A549 cells; note: nearly all actives have a fitted effect of over 35% in size; inactives centre near -10
# Vaccinia Venus = qHTS for Stage-Specific Inhibitors of Vaccinia Orthopoxvirus: Venus Reporter Primary qHTS | Potency, µM (doses to about 36.5 µM), for inactives: at the top dose activity change, negative = inhibition, most hits filed as inhibitors | Vaccinia virus Venus reporter expression, fluorescence | 330,000 compounds, 0.46% hits; active means well fitted inhibition curve with a large enough effect; inconclusive means small, poorly fitted or top-dose-only effect; inactive means no such curve, though single readings can be large or run the other way; tested in A549 cells; note: nearly all actives have a fitted effect of over 30% in size; inactives centre near -10
# * = called active by the depositor; i = inactive; ? = inconclusive; . = not tested or not shown; & = joins results of further samples; [ ] = another dose, or the depositor's remark. % is set by controls: 0 for no effect and ±100 for the full control effect; potency is the fitted concentration of half-maximal effect.
structure	Vaccinia mCherry	Vaccinia Venus
CC(=O)OC1CC[C@]2(C)C(CC[C@@]3(C)C2C(=O)C=C2C4C(C)C(C)CC[C@@]4(C(=O)O)CCC23C)C1(C)C (some centres not stated)	16%	18%
CCOC(=O)c1sc(NC(=O)CSc2n[nH]c(CC)n2)nc1C	-21%	-10%
O/N=C(/CCc1ccccc1)c1ccc2c(c1)OCCO2	?	-9%
Cc1c(C(=O)Nc2cccc(Cl)c2)c2ccccn2c1CCc1ccncc1	?	?
COc1cccc(C(C(=O)NC(C)(C)C)N(CCC(C)C)C(=O)CCC(=O)Nc2cc(C)on2)c1OC (configuration not stated)	-4%	-20%
Cc1cc(N2CCN(C(c3ccccc3)c3ccccc3)CC2)n2ncnc2n1	-15%	-2%
CCOC(=O)c1ccccc1NC(=O)c1cnn(-c2ccc(OC)cc2)c1C1CCN(C(=O)OC(C)(C)C)CC1	2%	-7%
Cc1ccc([C@H]2C(C(=O)O)=CC[C@@H](c3ccc(C(C)C)cc3)N2S(=O)(=O)c2ccc(C)cc2)cc1	-4%	0%
O=C(NCC1CCCO1)c1cccc(NC(=O)c2ccco2)c1 (configuration not stated)	.	-20%
CCOc1cccc(/C(O)=C2/C(=O)C(=O)N(CCOC)C2c2ccco2)c1 (configuration not stated)	-12%	-2%
CCCCNc1nc(-c2ccccc2)cc(C(F)(F)F)c1C(N)=O	-2%	-29%
C[C@@]12C(=O)Nc3ccc(Br)cc3C(=O)N1[C@H]1c3cc(Cl)ccc3OC[C@@H]1[C@@H]2c1ccccc1	-9%	?
O=C(N/N=C/c1c[nH]c2ccccc12)c1cc(-c2ccccc2)n[nH]1	?	-17%
C[C@]12CC[C@H](O)CC1=CCC1C2CC[C@@]2(C)C1CC[C@@H]2NC(=O)[C@@H](N)Cc1cnc[nH]1 (some centres not stated)	1%	22%
Cc1cccc(NC(=O)c2cccc(NC(=O)c3ccco3)c2)c1	i	-22%
CCN(CC)S(=O)(=O)c1cc(NC(=O)COC(=O)CCC(=O)c2cccs2)ccc1C	-12%	-3%
O=C(OCc1nnc(-c2ccccc2)o1)c1cc(S(=O)(=O)N2CCOCC2)c(Cl)cc1Cl	-14%	-8%
CNC(=O)CSc1nnc(C2CC2)n1-c1ccccc1	i	-15%
Nn1c(=O)c2ccccc2n2c(SCc3ccccc3)nnc12	.	-9%
CC(=O)N/C(=N/c1nc(C)cc(C)n1)Nc1ccc(F)cc1F	-12%	-7%
COC(=O)C1C(c2ccccc2)NC(=O)NC1(O)C(F)(F)Cl (configuration not stated)	i	-9%
O=c1cc(CNCCCO)c2ccccc2[nH]1	.	14%
COC(=O)CN(c1cc(C(F)(F)F)ccc1Cl)S(C)(=O)=O	-7%	-6%
O=C(N1CCCC1)C12CC3CCC(CC(C3)C1)C2	15%	3%
C=CCN1C(=O)c2ccc(C(=O)N3CCN(S(=O)(=O)c4cccc(F)c4)CC3)cc2C1=O	-12%	-10%
CCSc1nnc(NC(=O)Cc2cccc(OC)c2)s1	-17%	-22%
O=P(O)(O)COc1ccccc1P(=O)(c1ccccc1)c1ccccc1	-9%	-6%
COc1cc(CN2CCN(C(=O)COc3ccccc3)CC2)cc(OC)c1OC	.	-18%
COc1ccc(-c2nnc(NC(=O)C3=COCCO3)o2)cc1	-16%	-3%
CC1(C)COC(/C=C/c2cccc([N+](=O)[O-])c2)=N1	11µM*	?
CCN(C(=O)c1sc2cc(OC)ccc2c1Cl)c1ccccc1	-22%	-21%
CCOc1ccc(OCC)c(Nc2nc3ccccc3c3nnc(C)n23)c1	-7%	-8%
O=C(CC1CCCC1)Nc1ccc(Br)cc1	41%[activator]	-1%
NC(=O)COC(=O)CC12CC3CC(CC(C3)C1)C2	-6%	-11%
Cn1c(SCC(=O)Nc2ccc(C(N)=O)cc2)nnc1-c1cccs1	i	-17%
CCN(C(C)=O)c1cccc2ccccc12	.	-18%

# Full records as entered above. Order of values: Vaccinia mCherry	Vaccinia Venus
# O=C(NCC1CCCO1)c1cccc(NC(=O)c2ccco2)c1 (configuration not stated) across the screens: .	-20%
# O=C(CC1CCCC1)Nc1ccc(Br)cc1 across the screens: 41%[activator]	-1%
# Cc1cc(N2CCN(C(c3ccccc3)c3ccccc3)CC2)n2ncnc2n1 across the screens: -15%	-2%
# COc1cccc(C(C(=O)NC(C)(C)C)N(CCC(C)C)C(=O)CCC(=O)Nc2cc(C)on2)c1OC (configuration not stated) across the screens: -4%	-20%
# COC(=O)C1C(c2ccccc2)NC(=O)NC1(O)C(F)(F)Cl (configuration not stated) across the screens: i	-9%

# (next part)
structure	Vaccinia mCherry	Vaccinia Venus
COc1ccc(S(=O)(=O)N(C)C)cc1NC(=O)[C@H](Cc1ccccc1)N1C(=O)c2ccccc2C1=O	-9%	-3%
O=C(CN1CCN(C(=O)c2ccccc2)CC1)Nc1ccc(Cl)cc1F	-13%	-8%
COc1ccc(NC2=NCC(=O)N2Cc2cccs2)cc1	.	-15%
Cc1ccc(NC(=O)CN(C)S(=O)(=O)c2cccc3cccnc23)c(C)c1	-25%	-15%&-9%
COc1ccc(-c2cc(C(=O)NCC(c3ccccc3)N(C)C)c3ccccc3n2)cc1OC (configuration not stated)	-5%	-16%
COc1ccc(-c2nc(CS(=O)CC(=O)NCc3ccc(Cl)cc3)c(C)o2)cc1 (configuration not stated)	?	-12%
COc1cc(/C=N/OCC(=O)Nc2ccc(OC(F)F)cc2)ccc1OCc1ccccc1	-12%	-29%
CCOC(=O)Cc1ccc(NC(=O)c2ccccc2Br)cc1	-14%	-7%
CCC(=O)N1CCCC(C(=O)NS(=O)(=O)c2cc(C)c(Cl)cc2C)CC1 (configuration not stated)	43%[activator]	5%
CC(C)Cc1ccc(C(C)C(=O)Nc2nccs2)cc1 (configuration not stated)	-15%	-10%
Nc1cc(N)nc(SCC(=O)N2CCc3ccccc32)n1	.	-11%
Cc1cccc(C)c1N1C(=O)c2ccccc2NC(=O)C1C(=O)Nc1ccc2c(c1)OCCO2 (configuration not stated)	-19%	-10%
Cn1cc(CCCC(=O)NCc2ccccc2)c2ccccc21	i	-14%
O=C(N/N=C/c1ccc([N+](=O)[O-])cc1)c1ccccc1OCc1ccccc1	-14%	-3%
Cc1cc(C)cc(NC(=O)C2CCN(S(=O)(=O)c3c(C)n[nH]c3C)CC2)c1	.	-19%
CC1Cc2ccccc2N1C(=O)CN1C(=O)C(=O)N(Cc2ccccc2)C1=O (configuration not stated)	.	-15%
COCCN(C(=O)COC(=O)C1CC(=O)N(c2ccc(C)cc2)C1)c1c(N)n(Cc2ccccc2)c(=O)[nH]c1=O (configuration not stated)	i	-4%
O=C(NCCCCNC(=O)c1cccs1)c1cccs1	-10%	-12%
O=C(O)C1=CC(=C(c2ccc(O)c(C(=O)O)c2)c2ccc(O)c(C(=O)O)c2)C=CC1=O	-28%&-13%	-20%&-11%
CC(=O)NC(Cc1ccc([N+](=O)[O-])cc1)C(=O)NCC(N)C(=O)c1ccccc1 (configuration not stated)	i	-19%
CCOc1ccc(CN(C)CC(=O)Nc2ccc3c(c2)CCC3)cc1OC	-2%	-8%
C=CCCC(=O)N1CCC(n2nccc2NC(=O)c2ccc(OC)cc2)CC1	i	-21%
O=C(COC(=O)C1CCC(=O)N1)Nc1ccc(Br)cc1 (configuration not stated)	i	8%
Cc1ccc(C(=O)N2CCN(c3ccc(Cl)cc3)CC2)cc1	-8%	-24%
O=C(O)C1CCCC1	35%[activator]	-5%
COc1ccc(/C=C(\C#N)C(=O)Nc2cccc(C)n2)cc1	-12%	-3%
COC(=O)C[C@H]1CC[C@@H](NC(=O)c2ccncc2)[C@@H](CO)O1	-15%	-8%
CSCC[C@H](NC(=O)[C@H](Cc1ccccc1)NC[C@@H](NC[C@@H](N)CS)C(C)C)C(=O)O	i	-13%
CC1CN(C(=O)Nc2cccc(C(F)(F)F)c2)CC(C)O1 (configuration not stated)	i	-4%
Cc1nc(C(=O)NCC(=O)c2ccccc2)c(C(F)(F)F)o1	i	-12%
COCC1CCCN(Cc2ccc3c(c2)CN(C(=O)c2sc(C)nc2C)CCO3)C1 (configuration not stated)	0%	9%
Cn1c(=O)n(C)c2cc(/C=N/NC(=O)c3cc4cc(Br)ccc4o3)ccc21	-13%	-11%
CC1(C)COC(c2cccn2Cc2ccc(F)cc2Cl)=N1	-19%	-15%
CCOC(=O)C1=CN(Cc2cccc(F)c2)S(=O)(=O)N(CC)C1c1cccc(OC)c1 (configuration not stated)	-22%	-11%
Cc1cccc(-c2cc(NC(=O)COc3ccccc3F)n(-c3ccccc3)n2)c1	?	-29%
Oc1ccc(Br)cc1C1Nc2ccccc2S1 (configuration not stated)	-8%	-15%
CCc1nnc(SCC(=O)Nc2cc(OC)ccc2OC)nc1CC	-8%	-9%
Cc1ccc(CNC(=O)Cn2c(=O)n(-c3ccccc3)c(=O)c3sccc32)cc1	-19%	-22%
O=C(NC1CCCCC1)c1ccc(-c2ccccc2)cc1	6%	1%
Cc1ccc(C2(C)NC(=O)N(CC(=O)Nc3ccc(N4CCOCC4)cc3N3CCOCC3)C2=O)cc1 (configuration not stated)	-9%	-8%
O=CC1=C(N2CCOCC2)/C(=C\c2ccccc2)CC1	?	?
Cc1ccc(CNCC(O)(c2ccccc2)c2ccc(F)cc2)cc1 (configuration not stated)	-26%	-16%
OC[C@H]1O[C@H](c2nc(-c3nc(-c4cccc(-n5cccc5)c4)no3)cs2)C[C@@H]1O	i	-19%
CCC(c1nnnn1CCOC)N1CCN(Cc2ccccc2OC)CC1 (configuration not stated)	.	-8%
Cn1c(SCC(=O)N2CCc3ccccc32)nnc1C1CC1	-6%	8%
CC(Oc1ccccc1)C(=O)Nc1nc2ccc(S(N)(=O)=O)cc2s1 (configuration not stated)	-7%	-13%
Cc1cc(N2C(=O)C3C4CC(C(Br)C4Br)C3C2=O)no1 (configuration not stated)	-5%	-8%
CCCN(CC(=O)Nc1ccccc1OC)C(=O)CSc1nc(C)cc(C)n1	i	1%
CCOc1cccc(C2C(C(=O)c3ccc(C)o3)=C(O)C(=O)N2CCCn2ccnc2)c1 (configuration not stated)	i	-2%
O=C(N/N=C/c1cccnc1)/C(=C\c1cccs1)NC(=O)c1ccccc1	-15%	-7%
CC1CCc2nc(NCCO)nc(C(F)(F)F)c2C1 (configuration not stated)	-1%	-5%
COc1ccc(CN(Cc2ccccc2)C(=O)c2ccncc2)cc1COc1ccc(NC(C)=O)cc1	i	-14%
Cc1ccc(CNC(=O)c2cccnc2Sc2cccc(Cl)c2)cc1	-15%	-7%
CCOc1ccc(OCc2ccc(C(=O)OCc3ccccn3)o2)cc1	-18%	-6%
O=C(NN1CCOCC1)c1cc(-c2cccs2)nc2ccccc12	-11%	-2%
O=C(CN1CCN(c2ccc(O)cc2)CC1)Nc1ccc(S(=O)(=O)N2CCCC2)cc1	?	0%
CCOc1ccccc1-c1cc(-c2ccc(OC)cc2)nc2c1c(=O)n(C)c(=O)n2C	.	-15%
CCOC(=O)c1[nH]c(C)c(CCC(=O)NCc2cccc(Cl)c2)c1C	5%	-5%
CC(=O)Nc1c(C)cc(S(C)(=O)=O)cc1C	-11%	-5%
O=C1C2CC=CCC2C(=O)N1Cc1ccccc1Cl (configuration not stated)	i	-9%

# Next part.
structure	Vaccinia mCherry	Vaccinia Venus
CC(=O)Nc1nc2n(n1)C(c1ccc(Cl)cc1)C=C(C)N2 (configuration not stated)	.	-9%
CCCCn1c(N)c(N(CCOC)C(=O)c2cc3c(s2)CCC3)c(=O)[nH]c1=O	-4%	4%
O=c1[nH]c(=O)c2cn[nH]c2[nH]1	i	-9%
N#C/C(=C/c1cn(CC(=O)O)c2ccccc12)C(=O)NCc1ccccc1	i	16%
CCN(CC)c1ccc(NC(=O)C2CCCN(S(=O)(=O)c3cccnc3)C2)c(C)c1 (configuration not stated)	-8%	-13%
Clc1ccc2c(c1)CNc1c(ncnc1N1CCOCC1)O2	.	10µM*
COc1ccccc1OCCNC(=O)c1cc(SC)ccc1Cl	-17%	-9%
O=c1cccc(-c2cccc3ccccc23)o1	?	-15%
COc1ccc(C2C(=O)N(C3CCCCC3)CC(=O)N2CCC2=CCCCC2)cc1 (configuration not stated)	-8%	-11%
Oc1cccc2nc3ccccc3nc12	2%	5%
CCCCOC(=O)CSC1=C(C#N)C(c2ccc3c(c2)OCO3)CC(=O)N1 (configuration not stated)	-12%	-11%
Cc1nc(SCc2cc(=O)c3cccc(F)c3[nH]2)n[nH]1	1%	-2%
CC(C)CN(C(=O)COC(=O)CCSc1ccc(F)cc1)c1c(N)n(Cc2ccccc2)c(=O)[nH]c1=O	-22%	-1%
COc1ccc(C2Nc3ccccc3C(=O)N2Cc2ccco2)cc1 (configuration not stated)	i	-9%
O=C(Nc1cccc(Cl)c1)c1ccc(NC2=NC3CS(=O)(=O)CC3S2)cc1 (configuration not stated)	-11%	3%
O=C(COC(=O)c1nc(Cl)ccc1Cl)c1ccccc1Cl	-4%	-13%
O=C(Nc1c(C(=O)N2CCOCC2)cnn1-c1ccccc1)c1ccc([N+](=O)[O-])cc1	-13%	-5%

# From PubChem BioAssay
